VDR inh: inhibitors of human vitamin D receptor; Potency, µM, without a hit: max response, negative = inhibition, most hits filed as inhibitors; P11473; VDR-SRC2-3 peptide fluorescence polarization, 2 h; AID 504847; 400,000 tested, 0.93% active; active means well fitted inhibition curve with a large enough effect; inconclusive means small, poorly fitted or top-dose-only effect, or another doubt; inactive means no such curve, though single readings can be large or run the other way; further: series mostly up to about 120 µM
Target sequence (P11473 whole entry, looked up): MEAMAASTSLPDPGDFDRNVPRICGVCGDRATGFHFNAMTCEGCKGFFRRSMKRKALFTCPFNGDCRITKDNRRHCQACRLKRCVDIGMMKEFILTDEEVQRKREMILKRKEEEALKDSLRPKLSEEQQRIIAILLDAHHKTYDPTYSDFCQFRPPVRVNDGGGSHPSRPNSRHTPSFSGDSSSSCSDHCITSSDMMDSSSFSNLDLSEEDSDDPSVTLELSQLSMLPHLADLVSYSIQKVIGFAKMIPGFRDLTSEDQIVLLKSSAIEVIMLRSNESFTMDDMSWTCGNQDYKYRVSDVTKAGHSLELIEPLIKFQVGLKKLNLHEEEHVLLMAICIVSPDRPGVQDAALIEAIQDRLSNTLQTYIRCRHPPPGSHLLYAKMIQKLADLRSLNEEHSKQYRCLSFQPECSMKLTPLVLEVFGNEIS
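Signal is fluorescence polarization, reporting how far test compounds block the interaction of VDR with the SRC2-3 coregulator peptide after a 2 h room-temperature incubation.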
Starred values were filed as active, the others as inactive; ? = inconclusive. On the % scale 0 is the no-effect control and ±100 the full control effect; potency means the concentration at half of the fitted maximal effect. A portion of the library. The share of hits here may be higher or lower than overall.

SMILES	VDR inh
Cc1ccc(CNC(=O)Nc2ccc3c(c2)N(C)C(=O)CS3)cc1	-9%
CC1(C)CC(=O)c2cnc(N3CCN(c4ccccc4)CC3)nc2C1	4%
CC(C)c1cccc(C(C)C)c1NC(=O)COC(=O)c1ccc2c(c1)S(=O)(=O)c1ccccc1C2=O	-21%
Cn1c(CNS(=O)(=O)c2ccc(Br)cc2)n[nH]c1=S	7%
CCN(CC)CCC(c1ccc(N(C)C)cc1)c1c(OC)cc(OC)c2ccc(=O)oc12 (configuration not stated)	7%
COc1ccc(OC)c(CN2CCC(Cc3ccccc3)CC2)c1	-8%
Cc1ccc(C(=O)COC(=O)C2CC(=O)N(c3nc(-c4ccccc4)cs3)C2)cc1C (configuration not stated)	0%
CN(C)CCNC(=O)c1ccc(Cn2c(=O)c3cccn3c3cccnc32)cc1	-1%
COc1ccc(NC(=O)c2cccc(-n3c(C)ccc3C)c2)c(OC)c1	2%
Oc1cccc(Nc2nc(NCC3CCCO3)c3ccccc3n2)c1 (configuration not stated)	-1%
Cc1cnc(C(=O)OCC(=O)Nc2sc3c(c2C#N)CCC3)cn1	14%
COC(=O)[C@]1(Cc2ccccc2)N[C@H](CN(C)C(=O)Nc2ccc(C(F)(F)F)cc2)[C@@H]2C(=O)N(Cc3ccccc3)C(=O)[C@@H]21	-7%
O=C(COC(=O)c1cc(-c2ccco2)nc2ccccc12)NCc1ccc2c(c1)OCO2	-1%
Cc1ccccc1N1C(=O)C2ON(c3ccccc3)C(c3cccnc3)C2C1=O (configuration not stated)	-8%
COc1cc(OC)cc(-c2cc3nc(C)c(CCC(=O)Nc4ccc(C(C)=O)cc4)c(C)n3n2)c1	-8%
CC(c1ccco1)N(C(=O)c1cc(Cl)cc(Cl)c1)c1ccccn1 (configuration not stated)	9%
CCOC(=O)CC(=O)Nc1nnc(C(C)C)s1	-1%
CCOCCCNC(=S)N(Cc1ccccc1)Cc1nc2ccccc2c(=O)[nH]1	-5%
CCN(C(=O)COC(=O)c1ccccc1NCCO)c1cccc2ccccc12	-8%
O=C(CCC1N=C2c3ccccc3N=C(SCC(=O)Nc3ccccc3F)N2C1=O)NCc1ccccc1 (configuration not stated)	9%
O=C(c1ccccc1)N1CCN(C(=O)c2cc3nc(-c4ccccc4)cc(C(F)(F)F)n3n2)CC1	3%
CCC(c1nnc(SCC(=O)NCCc2ccc(Cl)cc2Cl)o1)N(C)C (configuration not stated)	-14%
Cc1cccc(CN2CCC(C(=O)Nc3ccc(Oc4cccnc4)cc3)CC2)c1	-15%
CN(C)C(=O)Cn1c(SCC(=O)Nc2ccc3c(c2)OCO3)nc2ccccc21	-1%
COc1cc2[nH]c(=O)n(CCC(=O)N3CCN(c4cccc(C)c4C)CC3)c(=O)c2cc1OC	-6%
CC(=O)C(Cc1ccccc1)NC(=O)CN1CCc2ccccc2C1 (configuration not stated)	9%
Cc1cccc(C)c1NC(=O)COC(=O)CSc1nnc(N)s1	-19%
COc1ccc(OC)c(NC(=O)c2cc(OC(C)=O)cc(C(=O)Nc3cc(OC)ccc3OC)c2)c1	-9%
CC(C)C(=O)N1CCC(CN=Cc2c(O)n(C3CCCCC3)c(=O)n(C3CCCCC3)c2=O)CC1	0%
CCCCN(C(=O)c1c(-c2ccccc2)noc1C)c1c(N)n(CCC)c(=O)[nH]c1=O	10%
COc1ccc(CN(CC(=O)NCc2ccc(F)cc2)C(=O)c2csnn2)cc1	5%
CC(=O)N1CCN(c2ccc(N)cc2)CC1	?
O=C(NC1CCCCC1NC(=O)c1cccs1)c1cccs1 (configuration not stated)	-18%
Cc1ccc(S(=O)(=O)c2nc(S(C)(=O)=O)sc2N2CCCC2)cc1	9%
COc1ccc(CNC(=O)c2cnn(-c3ccc(C)cc3)c2-n2cccc2)cc1OC	10%
O=C(CCCn1c(=O)c2cccn2c2ccc(F)cc21)NCCc1ccccc1	3%
COc1ccc(Br)cc1CN1CCCCCC1	-14%
CCCCn1c2nc3ccccc3nc2c2c(=O)n(CCC)cnc21	1%
CCOC(=O)c1ccccc1NC(=O)CN1CCC(n2nnc3cc(F)ccc32)CC1	-3%
CCCCn1cc(S(=O)(=O)c2ccc(C)c(C)c2)c(=O)c2cc(F)c(N3CCCC(C)C3)cc21 (configuration not stated)	8%
CCc1nn(CCCC(=O)N2CCN(c3cccc(C)c3C)CC2)c(=O)c2cc3occc3n12	?
COc1ccc(C(=O)N2CCC(c3ccccc3)CC2)c(OC)c1OC	-10%
Cc1ccc(NC2Nc3cc(C)nn3S2)c(C)c1 (configuration not stated)	-4%
COc1ccc(Br)cc1S(=O)(=O)Nc1cc(-c2cn3ccccc3n2)ccc1C	-5%
COc1cc(N)c(Cl)cc1C(=O)OCC(=O)NC1CCCC1	-2%
Cc1cc(C)c(S(=O)(=O)N2CCN(C(=O)c3ccccc3OCc3c(C)noc3C)CC2)c(C)c1	-12%
COC(=O)c1cnn(-c2ccccc2)c1C(OC)OC	6%
O=C(CCC(=O)N1CCSc2ccccc21)NC1CCCCC1	7%
COc1ccc(C(=O)Cc2ccc(OC)c(OC)c2)cc1	0%
CCC(=O)NC(c1ccccc1Cl)c1c(O)ccc2ccccc12 (configuration not stated)	-17%
O=C(O)CC(CC(=O)Nc1ccc(C(=O)O)cc1)c1ccccc1 (configuration not stated)	9%
Nn1c(SCc2nc3ccccc3[nH]2)nnc1-c1cccnc1	11%
O=C(Nc1cc([N+](=O)[O-])ccc1N1CCCC1)c1cccs1	-7%
CCN(CC)CCN1C(=O)C(=O)/C(=C(/O)c2c(C)[nH]c(C(=O)OC)c2C)C1c1ccco1 (configuration not stated)	13%
COc1ccc2nc3oc(C(=O)NCCCOC(C)C)cc3cc2c1	-23%
CCOc1ccc(CCNC(=O)COC(=O)CNS(=O)(=O)c2ccc(NC(C)=O)cc2)cc1OCC	-20%
COc1ccc(N(CC(=O)NC(C)c2ccccc2)S(=O)(=O)c2c(C)nn(C)c2C)cc1 (configuration not stated)	-3%
CCN(C(=O)c1cc2cc(Br)cc(OC)c2oc1=O)c1ccccc1	-9%
O=C(NC1CCCCC1)c1ccc2c(c1)N(Cc1ccccc1F)C(=O)c1ccccc1S2	10%
O=C(CN1C(=O)NC2(CCCC2)C1=O)N1CCN(S(=O)(=O)c2ccccc2F)CC1	-4%
(continued)
SMILES	VDR inh
CN(C)N1C(N)=C(C#N)C(c2ccc3c(c2)OCO3)C2=C1CCCC2=O (configuration not stated)	14%
CN(C)c1ccc(C(=O)NCc2ccc3c(c2)CCO3)cc1	11%
CCSc1nnc(Cn2c(=O)sc3ccccc32)n1-c1ccc(OC)cc1	-9%
COCCc1nnc(NC(=O)Cc2ccccc2)s1	3%
Cc1oc(-c2ccc3c(c2)OCCO3)cc1C(=O)NCC(=O)O	-14%
CCCCCCCCCCCCN1[C@@H](CC(C)=O)c2cc(F)cc(F)c2S1(=O)=O	0%
COc1ccc(C(=O)NCCOC(C)C)cc1OC1CCN(C(C)=O)CC1	0%
COc1cccc(-c2nc(CS(=O)CC(=O)NCCc3ccccc3)c(C)o2)c1 (configuration not stated)	7%
COc1ccc(Cc2nc3ccc(C(=O)N4CCC(N(C)C)C4)cc3o2)cc1 (configuration not stated)	-6%
CCc1cccc2c3c([nH]c12)[C@@](CC)(CC(=O)O)OCC3	?
COC(=O)CSc1nnc(-c2cccnc2)n1C	-13%
Cc1cc(C)c(C#N)c(SCCN2CCCCC2)n1	9%
COc1ccc(C(CC(=O)c2ccccc2)S(=O)(=O)c2ccc(C)cc2)cc1 (configuration not stated)	-25%
C=CCc1ccccc1OCCSc1nc(-c2ccc(C(C)(C)C)cc2)nc2cc(=O)[nH]n12	5%
CN1CCN(C(=O)c2cc3cc(F)ccc3[nH]2)CC1	-6%
Cc1cc(C)c(NC(=O)C2CCCN2CCC(C)C)c(C)c1 (configuration not stated)	-1%
CCN(CC)c1ccc(S(=O)(=O)N2CCOCC2)cc1NC(=O)COC(=O)COc1ccccc1C	12%
COc1ccc(C)cc1Nc1nnc(C)c(=O)[nH]1	1%
Cc1cn(COC/C=C/c2ccccc2)c(=O)[nH]c1=O	-3%
CCN(CC)C(=O)[C@H]1C[C@H](CC(=O)NCC23CC4CC(CC(C4)C2)C3)C(=O)N2CCc3c([nH]c4cc(CCC(=O)N(C)C)ccc34)[C@]12C	?
O=C(COc1ccccc1Cl)NNC(=O)Cn1[nH]c(=O)c2ccccc2c1=O	1%
O/N=C/c1cccc[n+]1CCCCCC[n+]1ccccc1/C=N/O	-6%
CCc1cccc(NC(=O)Cn2c(=O)c3cccn3c3ccccc32)c1	-1%
Nn1c(SCc2cccc(F)c2)nnc1-c1ccncc1	-5%
O=C(Nc1nc2ccccc2[nH]1)C1CCN(S(=O)(=O)c2cccs2)CC1	-4%
COC(=O)[C@H](CCSC)NC(=O)NCc1ccccc1F	-7%
O=C1N/C(=C/c2cccn2-c2ccc(F)cc2)C(=O)N1Cc1ccccc1F	-5%
CC(=O)NC1(C(F)(F)F)NC(=O)N(c2ccc(F)cc2)C1=O (configuration not stated)	16%
Nc1ccc(S(=O)(=O)N2CCCC2)cc1Cl	2%
CCC(C)NC(=O)CC(NS(=O)(=O)c1ccc(Cl)cc1)c1ccco1 (configuration not stated)	8%
COc1cc2c(cc1NC(=O)CCCN1C(=O)CCC1=O)oc1ccccc12	-2%
CCCC(=O)NC(c1ccc(OC)cc1)c1c(O)ccc2ccccc12 (configuration not stated)	-13%
CCC1C(=O)c2ccccc2N(C)C1=O (configuration not stated)	-1%
O=C(Nc1ccccc1C(=O)O)c1ccc(NC(=O)C2CCCO2)cc1 (configuration not stated)	-16%
O=C(CNC(=O)C1CCCCC1)OCC(=O)c1ccc(C2CCCCC2)cc1	-3%
O=C(CSc1c2c(nc3ccccc13)CCCC2)NCc1ccco1	2%
O=C(CN1C(=O)NC(CCc2ccccc2)C1=O)Nc1ccc(F)c(F)c1F (configuration not stated)	-9%
COc1ccc(OC)c(/C=N/NC(=O)c2nnn(-c3nonc3N)c2-c2cccs2)c1	-5%
OB(O)c1csc2ccccc12	-6%
NC(=O)CC(NC(=O)Cc1ccc(Cl)cc1)c1ccc(NCc2ccccc2)c([N+](=O)[O-])c1 (configuration not stated)	-16%
O=C(CSc1nnc(-c2cccnc2)n1Cc1ccccc1)NCc1ccccc1	-10%
CNC(=O)COC(=O)c1ccccc1Oc1ccccc1	-9%
Cc1cnc(NC(=O)Cc2ccc(Br)cc2)s1	9%
O=C(CN(C1CCCCC1)S(=O)(=O)c1ccc(F)cc1)NCC1CCCO1 (configuration not stated)	?
CCc1ccccc1NC(=O)CN1C(=O)CCc2cc(S(=O)(=O)N3CCCCC3)ccc21	4%
CCOC(=O)C1CC(c2ccc(Cl)cc2)=NNC1=O (configuration not stated)	-12%
CNC(=O)C1CC(=O)N(CCc2ccc(OC)c(OC)c2)C(=Nc2ccc(F)cc2)S1 (configuration not stated)	18%
CCOc1ccc(CN2CCN(Cc3ccc4cc(F)ccc4n3)CC2CCO)cc1 (configuration not stated)	-9%
CC(=O)c1cccc(NC(=O)c2ccc3c(c2)N(Cc2ccc(C)cc2)CCS3)c1	-14%
CCCC1(C(=O)O)NC(c2ccccc2O)C2C(=O)N(Cc3ccccc3)C(=O)C21 (configuration not stated)	-17%
O=C(NCc1nnnn1-c1ccc(F)cc1)C1CC(=O)N(c2ccc(F)cc2)C1 (configuration not stated)	-10%
CCCN1CCN(C(=O)C(C)n2nc(C)c3sc4ccccc4c3c2=O)CC1 (configuration not stated)	-1%
COc1ccccc1Cn1c(C)nnc1-c1cnn(C)c1N	6%
COc1ccc(OCc2cc(C(=O)N3CCSCC3)no2)c(Cl)c1	-16%
O=C(N/N=C/c1cccc(O)c1)c1ccc(NC(=O)c2cccc([N+](=O)[O-])c2)cc1	2%
CC(C)[C@@H]1COC(c2cccc(C3=N[C@H](C(C)C)CO3)n2)=N1	-4%

Bioassay records from PubChem BioAssay.
